# NS1 inh: inhibitors of influenza NS1 protein function; S. cerevisiae slowed by influenza A NS1, growth recovery by OD600; Potency, µM (doses to about 46.1 µM), for inactives: at the highest dose activity, positive = more growth; 0.4% of 270,000 active; AID 2326; active means well fitted rising curve with a large enough effect; inconclusive means small, poorly fitted or top-dose-only effect; inactive means no such curve, though single readings can be large or run the other way; note: nearly all actives have a fitted effect of over 50% in size
#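 Recovery from NS1-induced slow growth read by OD600 in budding yeast switched to galactose assay medium (pH 6.0, -URA) at 1:100 dilution. Compound 23 nl per well; the matching strain lacking NS1 serves as control.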
# Marburg entry inh: blocks Marburg virus binding to or entry into cells; Potency, µM (top dose mostly 37.8 µM), without a hit: top-dose activity change, negative = inhibition, hits mostly inhibitors; 1.8% of 300,000 active; AID 540276; Marburg virus pseudotyped entry inhibition, cell reporter; control for the full effect not named in the record; about a third of the inactives were read at about 46 µM; active = well fitted inhibition curve with a large enough effect; inconclusive = small, poorly fitted or top-dose-only effect, or effect the other way; inactive = flat fitted curve, though single readings scatter; tested in HEK293 cells; about a fifth of its hits are not listed in these tables; note: % is set by controls: 0 for no effect and ±100 for the full control effect; luciferase read-out
# StopGo reporter: FMDV 2A StopGo reporter, luciferase signal. human cells with a luciferase reporter of 2A StopGo recoding; control for the full effect not named in the record. Potency, µM (series often up to 57.9 µM), inactives show at the top dose signal change, negative = less light. 1.2% of 410,000 active. AID 1159524; active = well fitted falling curve with a large enough effect; inconclusive = small, poorly fitted or top-dose-only effect; inactive = no such curve, though single readings can be large or run the other way; tested in HEK293T cells; note: % is set by controls: 0 for no effect and ±100 for the full control effect; nearly all actives have a fitted effect of over 45% in size; luciferase light after 4 h
# Cruzain noTriton: inhibitors of Trypanosoma cruzi cruzain without detergent | P25779 | purified cruzain, Z-FR-AMC fluorescence, no detergent | Potency, µM, inactives show max response, negative = inhibition, hits mostly inhibitors | 2.3% of 200,000 active;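 note: plate controls were enzyme without inhibitor for no effect and buffer without enzyme for full effect; nearly all actives have a fitted effect of over 40% in size; top concentration of the series not given in the record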
# Target sequence (P25779 123-467 limits assumed): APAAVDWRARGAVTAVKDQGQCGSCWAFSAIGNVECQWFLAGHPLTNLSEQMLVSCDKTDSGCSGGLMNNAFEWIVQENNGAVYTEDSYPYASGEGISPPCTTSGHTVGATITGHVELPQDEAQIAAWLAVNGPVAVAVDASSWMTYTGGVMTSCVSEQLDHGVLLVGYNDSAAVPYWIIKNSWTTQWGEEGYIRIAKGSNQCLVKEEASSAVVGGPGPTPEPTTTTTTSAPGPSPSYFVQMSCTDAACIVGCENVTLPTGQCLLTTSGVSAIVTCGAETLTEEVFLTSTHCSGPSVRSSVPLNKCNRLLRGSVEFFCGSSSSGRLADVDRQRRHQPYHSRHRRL
#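 Detergent-free condition (0.00005% Triton X-100) in acetate buffer pH 5.5 with DTT. 1.5 nM enzyme and compound were pre-mixed 15 min, then 2 uM Z-FR-AMC substrate added; reaction progress from fluorescence change between first and third reads (60 s).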
# RE007 growth inh: less growth of the S. pombe RE007 Vpr strain. S. pombe RE007 Vpr strain, BacTiter-Glo ATP luminescence, 24 h; control for the full effect not named in the record. Potency, µM (doses to about 92.2 µM), for inactives: at the top dose activity change, negative = less growth. 0.21% of 360,000 active; active = well fitted falling curve with a large enough effect; inconclusive = small, poorly fitted or top-dose-only effect; inactive = no such curve, though single readings can be large or run the other way;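 note: % is set by controls: 0 for no effect and ±100 for the full control effect; nearly all actives have a fitted effect of over 50% in size; the assay follows cell death caused by Vpr and the record does not say whether a fall means rescue or toxicity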
#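 Fission yeast RE007 carrying one integrated HIV-1 vpr copy, seeded at OD 0.01 in PMG+AL medium with 23 nL pinned compound. Grown 24 h at 30 degrees; viability read by BacTiter-Glo luminescence after 5 min.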
# Cruzain inh Det: blocks cruzain activity in presence of Triton detergent; P25779; purified cruzain, Z-FR-AMC fluorescence, 0.01% Triton; Potency, µM, inactives show max response, negative = inhibition, actives largely listed as inhibitors; 0.43% of 200,000 active; AID 1478;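 note: plate controls were neutral wells for no effect and buffer without enzyme for full effect; nearly all actives have a fitted effect of over 40% in size; top concentration of the series not given in the record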
#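 In this qHTS format, compounds are incubated with 1.5 nM cruzain for 15 min at room temperature before 2 uM Z-FR-AMC is added. Release of AMC is followed at 360/450 nm, and progress is taken as the 60 s fluorescence difference.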
# SARS PLpro yeast: blocks SARS-CoV papain-like protease in a yeast assay; S. cerevisiae expressing SARS-CoV PLpro, growth rescue; control for the full effect not named in the record; Potency, µM (titrated, usually from 32.9 µM), for inactives: at the highest dose activity, positive = growth rescue; 0.19% of 330,000 active; AID 485353; active means well fitted rising curve with a large enough effect; inconclusive means small, poorly fitted or top-dose-only effect; inactive means no such curve, though single readings can be large or run the other way; note: 0% is about no effect; nearly all actives have a fitted effect of over 55% in size; growth read by luminescence after 48 h
# Lassa entry inh: inhibitors of Lassa virus binding or cell entry; Lassa virus pseudotype entry inhibition, cell reporter; control for the full effect not named in the record; Potency, µM (doses to about 37.9 µM), without a hit: at the top dose activity change, negative = inhibition, hits mostly inhibitors; 1.2% of 300,000 active; active means well fitted inhibition curve with a large enough effect; inconclusive means small, poorly fitted or top-dose-only effect, or effect the other way; inactive means flat fitted curve, though single readings scatter; tested in HEK293 cells; note: % is set by controls: 0 for no effect and ±100 for the full control effect; nearly all actives have a fitted effect of over 50% in size; luciferase read-out
# * marks the source's active call; other numbers are inactive results; ? = inconclusive; · = not tested or not shown; & = joins results of further samples; [ ] = another dose, or the depositor's remark. Unless noted, calls come from the whole dose curve; as a rule, active = well fitted curve in the direction sought with a large enough effect; inconclusive = small, poorly fitted or top-dose-only effect, or another doubt; inactive = no such curve, though single readings can be large; an effect the other way counts as inactive or inconclusive. Potency is the fitted concentration of half-maximal effect.
SMILES,NS1 inh,Marburg entry inh,StopGo reporter,Cruzain noTriton,RE007 growth inh,Cruzain inh Det,SARS PLpro yeast,Lassa entry inh
Cc1c(Cl)c([N+](=O)[O-])nn1CC(=O)N1CCCC1,?,-27%,-26%,-1%,10%,-0.8%,24%,-2%
COC(=O)c1ccc(Cn2c(SCC(=O)Nc3ccc(F)cc3)nc3ccccc32)cc1,·,·,?,-6%,·,-2.1%,·,-2%[46.1 µM]
CSc1ccccc1NC(=O)c1ccccc1,-2%,6%,0%,·,-10%,·,2%,-3%
O=C(Nc1ccccc1)Nc1ccccc1NS(=O)(=O)c1cccs1,-1%,0%,33%[activator],30%,-2%,-7.3%,2%,29%
CCC(=O)N1CCc2cc(Br)cc(S(=O)(=O)N3CCCC(C(=O)Nc4cccc(F)c4)C3)c21 (stereo unspecified),·,-3%[46.1 µM],-13%,-9%,·,-2.3%,·,-21%[46.1 µM]
CCCc1cc(C(=O)Nc2ccn(Cc3ccc(C)cc3)n2)no1,-40%,·,-14%,·,-24%,·,-4%,·
O=C(NCCN1CCCOC1=O)C(=O)NCCN1CCCOC1=O,-10%,·,-7%,·,7%,·,2%,·
COC(=O)CC1C(=O)NCCN1C(=O)CSc1nnc(Nc2ccc(OC)cc2)s1 (stereo unspecified),-37%,8%,0%,-19%,-4%,-3.7%,-9%,?
COc1ccc(S(=O)(=O)N2CCCN(CC(=O)Nc3ccc(NC(C)=O)cc3)CC2)cc1,12%,13%&1%[46.1 µM],6%&-18%,·,12%,·,·,-8%
Cc1oc2ccc(OC(=O)N3CCOCC3)cc2c1C(=O)OC(C)C,-88%,-24%,?,?,1%,-1.3%,-2%,-15%
O=C(NNc1ncnc2ccccc12)c1cccc(Cl)c1,4%,·,45%[activator],·,26%,·,1%,·
Cc1cccc(OCCN2C(=O)C(=O)c3cccc(C)c32)c1,1%,?,-9%,?,4%,-5.5%,22%,12%
CCOc1ccc(C(=O)NC2CCN(C(=S)NCc3ccco3)CC2)cc1,3%,?,·,-24%,-13%,9.4%,5%,1%
O=C(O)c1ccc(-n2nnnc2SCc2ccccc2Br)cc1,-3%,·,5%,·,2%,·,-1%,·
COC(=O)c1cc(S(=O)(=O)N2CCN(c3ccc(F)cc3)CC2)cn1C,3%,·,-23%&-29%,5%,-8%,-1.8%,-1%,-23%[46.1 µM]
N#Cc1c(NC(=O)CCn2cnc3ccccc3c2=O)oc(-c2ccccc2)c1-c1ccccc1,?,?,?,32µM*,24%,5.4%,0%,?
O=C(c1ccccc1[N+](=O)[O-])N1CCCN(C(=O)c2ccccc2[N+](=O)[O-])CC1,-3%,0%,6%,1%,-4%,-1.4%,7%,-12%
CNC(=O)c1c(NC(=O)c2ccc(S(=O)(=O)N3CCCC(C)C3)cc2)sc2c1CCC2 (stereo unspecified),·,·,-23%,-5%,·,-2.5%,·,14%[46.1 µM]
O=C(NCc1ccco1)c1cnc2n(c1=O)CCS2,3%,5%,-13%,-8%,7%,-0.3%,3%,24%
CC(C)Cn1c(N)c(C(=O)COC(=O)c2cc(S(=O)(=O)N3CCOCC3)ccc2Br)c(=O)n(C)c1=O,·,?,?,·,-25%,·,2%,?
CC(NC(=O)Nc1ccccc1)C(c1ccccc1)N1CCOCC1 (stereo unspecified),2%,31%,-16%,9%,1%,1.3%,9%,8%
Cc1nn(C)c(Cl)c1CN1CCCC(CO)(Cc2cccc(Cl)c2)C1 (stereo unspecified),5%,·,-6%,·,9%,·,0%,·
CCOc1cc(C)c(Cl)cc1S(=O)(=O)NCCOC,7%,10%,73%[activator],-2%,-8%,-2.3%,20%,12%
CCCN(CC(=O)Nc1ccccc1C)C(=O)COC(=O)CSc1ccc([N+](=O)[O-])cc1,·,-3%,-6%,·,-9%,·,-1%,11%
O=C(NC1CCS(=O)(=O)C1)C1C2CC3CC(C2)CC1C3 (stereo unspecified),·,?,-18%,·,8%,·,0%,12%[46.1 µM]
O=C(O)CNC(=O)c1ccc(NC(=O)/C(=C/c2ccccc2)NC(=O)c2ccccc2Br)cc1,5%,·,-2%,·,-3%,·,1%,·
COc1cc(NC(=O)CN2CCN(c3ccc(F)cc3)CC2)cc(OC)c1,·,·,-8%,6%,·,-3.9%,·,-30%[46.1 µM]
CCn1cc(/C=C(\NC(=O)c2ccc(C)cc2)C(=O)NCCCn2ccnc2)c2ccccc21,·,?,23%,15%,·,-7.2%,·,20%[46.1 µM]
FC(F)(F)c1nnc2ccc(N3CCN(c4ccccc4)CC3)nn12,-1%,-3%,0%,?,-2%,2.0%,0%,11%
Cc1ccc(CN2C3CCCC2CC(NC(=O)c2ccc(F)cc2)C3)cc1 (stereo unspecified),-10%,7.1µM*,-6%,·,4%,·,-6%,-13%
CC(C)(C)N(Cc1ccccc1)C(=O)COC(=O)[C@@H]1CCCN1C(=O)c1cccs1,·,12%,-9%,·,10%,·,-4%,-30%[46.1 µM]
CN(c1ccccc1)C1CCCCC1NS(=O)(=O)c1ccc(Cl)cc1 (stereo unspecified),-36%,?,30%,2%,-20%,-4.8%,-85%,?
CN(C)c1ccc(C(CNS(=O)(=O)c2ccc(Br)cc2)N2CCOCC2)cc1 (stereo unspecified),·,·,-11%,16%,·,-0.9%,·,?
CCNC(=O)c1ccc(C2SCC(=O)N2CCc2ccccc2)cc1 (stereo unspecified),-11%,-3%,-7%,11%,2%,0.1%,-5%,?
CCOc1ccc(C(=O)Nn2cnnc2)cc1OCC,-5%,·,-24%,·,-5%,·,1%,·
Cc1ccsc1C(=O)N1CCN(c2ncc(C(F)(F)F)cc2Cl)CC1,·,-18%,?,·,-25%,·,·,-10%
O=[N+]([O-])c1ccc(N=NNc2ccccc2)cc1,·,24%,30%,·,-14%,·,-6%,17%
CCn1ccnc1CN(C)Cc1cn(-c2cccc(C)c2)nc1-c1cccc(F)c1,-44%,·,0%,·,-5%,·,-4%,·
Cc1nc(Oc2ccc(Cl)cc2)c2oc3ccccc3c2n1,6%,13%,-3%,1%,2%,4.0%,0%,-19%
COc1ccc(CCNS(=O)(=O)c2ccc(F)c(C(=O)Nc3ccc(Cl)cc3)c2)cc1OC,·,·,?,-9%,·,2.1%,·,?
Cn1cccc1/C=N/NC(N)=S,0%,-5%[46.1 µM],-2%,·,12%,·,10µM*,-2%[46.1 µM]
Cc1onc(-c2ccccc2)c1C(=O)Nc1nncs1,13%,12%[46.1 µM],-6%,·,4%,·,4%,8%
Oc1c(C(c2ccco2)N2CCOCC2)sc2ncnn12 (stereo unspecified),-23%,·,-11%,5%,-1%,5.7%,12%,·
Nc1c2c(=O)[nH]c(O)cc2nn1-c1ccccc1,·,-13%[46.1 µM],1%,·,9%,·,·,?
COc1ccc(OCC(=O)N/N=C(\C)CC(=O)Nc2cccc([N+](=O)[O-])c2)cc1,·,-7%,5%,·,-10%,·,-5%,3%
COc1ccc(N2CCN(C(=O)C3=NNC(=O)CC3)CC2)cc1,24%,-3%,9%,-5%,-4%,-2.2%,-13%,-1%
CC1(C)Cc2nc3sc4c(N(CCO)CCO)ncnc4c3cc2CO1,6%,4%&4%,12%,2%,7%,-2.0%,4%,0%
O=C(Nc1ccc(S(=O)(=O)NCc2ccccc2)cc1)Nc1ccc2c(c1)OCO2,9%,16%,74%[activator],?,11%,-3.7%,4%,43%[14.3 µM]
CCOC(=O)c1sc2ccccc2c1S(=O)(=O)N1CCN(c2ccccc2)CC1,·,·,-16%,32µM*,·,-4.3%,·,?
COc1ccc(NC(=O)COC(=O)c2ccc(F)cc2F)cc1,·,-11%[46.1 µM],-4%,·,-10%,·,20%,-5%
Cc1ccc(N(CC(=O)NCCSCc2ccco2)S(=O)(=O)c2ccc(F)cc2)cc1,-7%,-13%,1%,·,-10%,·,15%,?
COc1ccc(S(=O)(=O)N2Cc3ccccc3CC2C(=O)Nc2cccc(C)c2)cc1OC (stereo unspecified),·,0%[46.1 µM],-28%,9%,·,-5.3%,·,-18%[46.1 µM]
COc1ccc(NC(=O)Cc2c(C(=O)O)[nH]c3ccccc23)cc1OC,·,-17%[46.1 µM],-9%,-1%,·,-6.8%,·,26%[46.1 µM]
CC(C)(C)c1cc(=O)n2c(C#N)c(C#N)nc2[nH]1,-4%,10%,-14%,-7%,-1%,-3.2%,-5%,-5%
CCCn1c(=O)[nH]c(=O)c2c1nc(-c1ccc(OC)c(Br)c1)n2CCOC,1%,2%[46.1 µM],-11%,·,6%,·,-2%,7.9µM*
CC(C)c1ccc(NC(=O)COc2ccc(S(=O)(=O)N3CCOCC3)cc2)cc1,-3%,1%,3%,17%,19%,3.4%,20%,3%
Cc1ccc(C(=O)NC2CC3CCCC(C2)N3C(=S)NCc2ccco2)cc1 (stereo unspecified),-3%,-16%[46.1 µM],18%,·,-12%,·,-2%,8%[46.1 µM]
COc1ccc(Br)cc1CNC(=O)c1cc(=O)[nH]c2ccc(S(=O)(=O)N3CCCCC3)cc12,·,·,-8%,8%,·,0.3%,·,-15%[46.1 µM]
CCOC(=O)N1CCN(C(=O)c2ccc(Cn3c(=S)[nH]c4cc(OCC)c(OCC)cc4c3=O)cc2)CC1,·,?,?,·,2%,·,2%,?
CSc1ccc(-c2nc3c(C)cccn3c2Nc2ccc3c(c2)OCCO3)cc1,·,-24%[46.1 µM],-8%,?,·,-12%,·,-17%[46.1 µM]
# Following part.
SMILES,NS1 inh,Marburg entry inh,StopGo reporter,Cruzain noTriton,RE007 growth inh,Cruzain inh Det,SARS PLpro yeast,Lassa entry inh
COc1ccc(N(CC(=O)NCCC2=CCCCC2)S(=O)(=O)c2ccccc2)cc1OC,-11%,·,-10%,·,0%,·,-1%,·
CCOC(=O)C(NC(C)=O)C(OC(C)=O)c1cccc(N(CCO)CCO)c1 (stereo unspecified),1%,6%[46.1 µM],-5%,-7%,9%,3.9%,11%,22%
CCC(Oc1ccccc1)C(=O)Nc1nnc(C)s1 (stereo unspecified),-11%,6%,5%,6%,4%,4.4%,-2%,0%
O=C1CC(Nc2ccc3ccccc3c2)C(=O)N1Cc1ccccc1 (stereo unspecified),2%,?,-20%,-10%,-13%,-9.6%,8%,?
O=S(=O)(c1ccccc1)C1Cc2ccccc2C1Cl (stereo unspecified),·,-25%[46.1 µM],-1%,·,-21%,·,·,-6%[46.1 µM]
